VDR inh: vitamin D3 receptor (human) inhibition | P11473 | VDR-SRC2-3 peptide fluorescence polarization, 2 h | Potency, µM, inactives show max response, negative = inhibition, usual class: inhibitors | 400,000 tested, 0.93% active | AID 504847; active = well fitted inhibition curve with a large enough effect; inconclusive = small, poorly fitted or top-dose-only effect, or another doubt; inactive = no such curve, though single readings can be large or run the other way; note: series mostly up to about 120 µM
Target sequence (P11473 whole entry, looked up): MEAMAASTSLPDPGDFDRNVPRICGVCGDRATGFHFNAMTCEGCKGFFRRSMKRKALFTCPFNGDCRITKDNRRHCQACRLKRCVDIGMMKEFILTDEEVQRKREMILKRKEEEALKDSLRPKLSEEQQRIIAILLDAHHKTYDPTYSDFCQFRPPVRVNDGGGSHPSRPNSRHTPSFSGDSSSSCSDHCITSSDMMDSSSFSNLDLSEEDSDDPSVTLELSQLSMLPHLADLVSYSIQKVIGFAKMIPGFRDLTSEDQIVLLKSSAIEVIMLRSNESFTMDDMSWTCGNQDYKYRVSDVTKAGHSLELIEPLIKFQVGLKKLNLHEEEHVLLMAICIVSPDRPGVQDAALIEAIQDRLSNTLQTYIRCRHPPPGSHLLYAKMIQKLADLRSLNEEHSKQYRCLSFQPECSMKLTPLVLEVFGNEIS
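Inhibition of the VDR/SRC2-3 peptide interaction is quantified by fluorescence polarization. Compounds (23 nl, pintool) incubate with the reagents for 2 hours at ambient room temperature.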
* marks the source's active call; other numbers are inactive results; ? = inconclusive; & = joins results of further samples. % is set by controls: 0 for no effect and ±100 for the full control effect; potency is the fitted concentration of half-maximal effect. Not all compounds are listed; the hit share may differ from the screen's.

COc1ccc(NC(=O)C(C)N=C2NS(=O)(=O)c3ccccc32)cc1S(N)(=O)=O (stereo not given)
  VDR inh: 1%
Cc1cc(NC(=O)Nc2nnc(N(C)C3CCCCC3)s2)ccc1Br
  VDR inh: 9%
CN(CC(=O)Nc1cccc(F)c1)C(=O)CCCN1C(=O)c2cccc3cccc(c23)C1=O
  VDR inh: -9%
Cc1ccc(-n2c(P(C)(=O)O)nc3ccccc32)cc1
  VDR inh: ?
Cc1ccc(C)c2sc(N3CCN(C(=O)c4ccc([N+](=O)[O-])o4)CC3)nc12
  VDR inh: -10%
COC(=O)N/N=C/c1ccccc1OCc1ccccc1
  VDR inh: -5%
O=c1cc(O)nc(SCc2ccccc2)[nH]1
  VDR inh: 20%
CCOC(=O)c1csc(NC(=O)c2cc(OC)c(OC)c(OC)c2)n1
  VDR inh: 12%
CCN(CC)c1ccc(C(=C2C=CC(=[N+](CC)CC)C=C2)c2ccc(N(CC)CC)cc2)cc1
  VDR inh: ?
CC1CCC(NC(=O)CN2CCN(S(=O)(=O)c3cccs3)CC2)CC1 (stereo not given)
  VDR inh: -19%
O=C(c1ccco1)N1CCN(Cc2nnc(-c3ccccc3)o2)CC1
  VDR inh: 15%
C=CCn1c(=O)c2c(nc3n2CC(C)CN3Cc2ccccc2)n(C)c1=O (stereo not given)
  VDR inh: -3%
COc1cc(C(=O)O)c2c(c1C)OC(=O)c1c(C)cc(O)c(C=O)c1O2
  VDR inh: ?
CCOc1ccc(NS(=O)(=O)c2cc(NC(=O)c3cccc(C)c3)ccc2Cl)cc1
  VDR inh: 4%
CCOc1ccc(C(=O)/C=C/c2ccc(SC)cc2)cc1
  VDR inh: 3%

The closing 4 compounds of the part above come first, to join the parts:
C=CCn1c(=O)c2c(nc3n2CC(C)CN3Cc2ccccc2)n(C)c1=O (stereo not given)
  VDR inh: -3%
COc1cc(C(=O)O)c2c(c1C)OC(=O)c1c(C)cc(O)c(C=O)c1O2
  VDR inh: ?
CCOc1ccc(NS(=O)(=O)c2cc(NC(=O)c3cccc(C)c3)ccc2Cl)cc1
  VDR inh: 4%
CCOc1ccc(C(=O)/C=C/c2ccc(SC)cc2)cc1
  VDR inh: 3%
O=C(NC1CCCC1)C(c1cccnc1)N(CCc1ccccc1)C(=O)c1ccco1 (stereo not given)
  VDR inh: -9%
CN(CC(=O)Nc1ccccc1Br)C(=O)CCCSc1nc2ccccc2[nH]1
  VDR inh: -1%
Nc1ccc(Oc2ccc([N+](=O)[O-])cc2[N+](=O)[O-])cc1
  VDR inh: 1%
CC(C)(C)NC(=O)/C(=C\c1ccco1)NC(=O)c1cccs1
  VDR inh: 6%
CC1CCCCC1NC(=O)COc1cccnc1[N+](=O)[O-] (stereo not given)
  VDR inh: 4%
C=CCNC(=S)N1CCC(C(=O)c2ccc(C)cc2)CC1
  VDR inh: 16%
CC(C)CNC(=O)c1cccc(NC(=O)Cc2ccc(Br)cc2)c1
  VDR inh: -4%
CCC(C(=O)NC(C)c1ccccc1)C(=O)NC(C)c1ccccc1 (stereo not given)
  VDR inh: 3%
COc1ccc(N2C(=O)CCC(C(C)=O)=C2C)cc1
  VDR inh: -4%
O=C(O)CCn1cc(/C=N/O)c(-c2cccc([N+](=O)[O-])c2)n1
  VDR inh: -2%
CC(=NO)C1CCC2C3CCC4=CC(=NO)CCC4(C)C3C(O)CC12C (stereo not given)
  VDR inh: -17%
CC(=O)c1sc2c(c1C)c(=O)n(-c1ccc(Cl)cc1)c(=O)n2Cc1cc(=O)n2cc(Cl)ccc2n1
  VDR inh: -2%
COc1ccccc1N1CCN(c2ncnc3c2oc2ccccc23)CC1
  VDR inh: 13%
CC(C)(C)CN1CCNC(=O)C1CC(=O)N1CCOc2ccccc2C1 (stereo not given)
  VDR inh: 1%
O=C(Cc1ccccc1)N(c1ccc(F)cc1)C1C=CS(=O)(=O)C1 (stereo not given)
  VDR inh: -11%

Cc1cc2nc(-c3ccc(NC(=O)c4cc5ccccc5o4)cc3)oc2cc1C
  VDR inh: 11%
CCCCCC(=O)Nc1nc(C)c(-c2csc(Nc3ccc(Cl)cc3)n2)s1
  VDR inh: -8%
O=C(O)CC(NC(=O)OCc1ccccc1)c1ccccc1 (stereo not given)
  VDR inh: 14%
CN(C)C(CNC(=O)CCS(=O)(=O)c1ccccc1)c1ccccc1 (stereo not given)
  VDR inh: -1%
CCCCNC(=S)Nc1ccc2nc3n(c(=O)c2c1)CCCCC3
  VDR inh: -2%
O=c1cc2c(nn1Cc1ccccc1Cl)-c1ccccc1CC2
  VDR inh: -11%
O=[N+]([O-])c1ccc([N+](=O)[O-])c(Nc2ccc(N3CCOCC3)cc2)c1
  VDR inh: -2%
CCc1ccc(S(=O)(=O)Nc2ccc(-c3ccc4nnc(C)n4n3)cc2)s1
  VDR inh: 14%
CC(C)CCNC(=O)C(C)N(C(=O)c1snc(C(N)=O)c1N)c1cnc2ccccc2c1 (stereo not given)
  VDR inh: 15%
O=[N+]([O-])c1cc(F)c(N2CCCCC2)cc1N1CCOCC1
  VDR inh: 2%
COc1ccc(C=O)cc1C1=CC(=O)C[C@H](c2ccc(Cl)cc2)C1
  VDR inh: 2%
O=C(COc1ccccc1[N+](=O)[O-])OCCCOC(=O)COc1ccccc1[N+](=O)[O-]
  VDR inh: -14%
Cc1cccc(N2CCN(C(=O)Cn3nc(Cc4ccncc4)c4ccccc4c3=O)CC2)c1C
  VDR inh: -22%
COc1ccc(/C=C/C(=O)NC(=S)N2CCN(c3ccccc3OC)CC2)cc1
  VDR inh: -12%
c1ccc(Cn2nnnc2C(c2ccncc2)N2CCOCC2)cc1 (stereo not given)
  VDR inh: 7%

Cc1cc(S(=O)(=O)NCc2ccccc2)ccc1OCC(=O)N1CCCC1
  VDR inh: 0%
Cc1nnc(Oc2ccccc2)c2ccccc12
  VDR inh: -6%
CC(=O)c1ccn(S(=O)(=O)c2ccccc2)c1
  VDR inh: 1%
CC1CCN(c2ccc(NC(=S)NC(=O)c3ccc(-c4cccc([N+](=O)[O-])c4)o3)cc2)CC1
  VDR inh: ?
O=C(NCc1cccc(Cl)c1)N1CCN(S(=O)(=O)c2ccccc2F)CC1
  VDR inh: 12%
CC1CC(C)CN(C(=O)COC(=O)CNC(=O)C23CC4CC(CC(C4)C2)C3)C1 (stereo not given)
  VDR inh: -13%
CCOc1ccc(NC(=S)NC(=O)c2cccnc2)c([N+](=O)[O-])c1
  VDR inh: -1%
CCCc1cc(=O)oc2cc(C)cc(OC(C)C(=O)NCCN3CCOCC3)c12 (stereo not given)
  VDR inh: -18%
Cc1ccc(S(=O)(=O)N(CC(O)Cn2c3ccccc3c3ccccc32)c2cccc(C(=O)N(C)C)c2)cc1 (stereo not given)
  VDR inh: ?
COC(=O)C1CN(C(=O)C(C)Oc2cccc(C)c2C)c2ccccc2O1 (stereo not given)
  VDR inh: -6%
O=C(Nc1nnc(-c2ccc3c(c2)CCCC3)o1)C1CCCCC1
  VDR inh: 6%
O=C(CN1CCN(C/C=C/c2ccccc2)CC1)NCc1ccccc1
  VDR inh: -10%
COc1ccccc1OCCOc1ccccc1/C=N/n1cnnc1
  VDR inh: -3%
CCN(CCCNC(=O)CCCCn1c(=O)[nH]c2ccccc2c1=O)c1ccccc1
  VDR inh: 13%
Cc1ccc(Cl)cc1NC(=O)COC(=O)CC1CC2CCC1C2 (stereo not given)
  VDR inh: -10%

Following part:
SMILES | VDR inh
Cc1ccc(-n2c(=S)[nH]c3sc4c(c3c2=O)CCc2ccccc2-4)cc1 | -20%
O=C(NCC1CCCO1)C1CCN(S(=O)(=O)c2ccc(Br)cc2)CC1 (stereo not given) | 0%
CCn1c2ccccc2c2cc(NC(=O)C(C)C)ccc21 | -9%
O=C(NCCCN1CCOCC1)c1ccc2c(c1)N(Cc1ccccc1)CCS2 | -5%
CCSc1nnc2n(-c3cccc(C)c3)c(=O)c3c4c(sc3n12)CCCC4 | 7%
CCOc1ccc(NC(=O)c2cc(SC)ccc2Cl)cc1 | -11%
Clc1ccccc1-c1nc(-c2ccccc2)n[nH]1 | 1%
COc1cccc(/C=C/C(=O)OCC(=O)c2c[nH]c3ccccc23)c1OC | -25%
CC(C)(C)NS(=O)(=O)c1ccc(CCC(=O)Nc2cc(Cl)ccc2Oc2ccccc2)cc1 | 0%
COc1ccccc1-n1c(CNC(=O)c2ccco2)nnc1SCC(=O)Nc1ccc(F)cc1 | 2%
Cc1ccc(C)c(SCC(=O)Nc2cccc(S(=O)(=O)NC3=NCCCCC3)c2)c1 | -10%
COc1ccc(NC(=O)c2ccc(NS(=O)(=O)c3cccc4cccnc34)cc2)cc1 | 22%
N#C/C(C(=O)N1CCCCC1)=C1\Nc2ccccc2S1 | 5%
C=CCN(c1ccc(F)cc1)S(=O)(=O)c1cc(C(=O)OCC(=O)N(C)C2CCS(=O)(=O)C2)ccc1Cl (stereo not given) | -2%
CN(c1ccccc1)S(=O)(=O)c1nnc(NC(=O)c2cccs2)s1 | -6%
O=S(=O)(Nc1ccncc1Cl)c1ccc2ccccc2c1 | 4%
NC1=NC(=O)/C(=C\c2ccc(O)c([N+](=O)[O-])c2)S1 | 10%
CCCCC(SCC(=O)Nc1ccccc1)C(=O)O (stereo not given) | 2%
CC1=C(C#N)C(C(F)(F)F)(C(F)(F)F)N=C(c2ccco2)N1 | -3%
Cn1c(=O)c2c(nc(NCCO)n2CCCc2ccccc2)n(C)c1=O | -11%
O=[N+]([O-])c1ccc(-c2cn3c(n2)SCC3)cc1 | -11%
CC(=O)Nc1ccc(N(CC(=O)NCC2CCCO2)C(=O)CCC(=O)Nc2cc(C)on2)cc1 (stereo not given) | 2%
CCCCN(C(=O)CCSc1ccc(F)cc1)c1c(N)n(Cc2ccccc2)c(=O)[nH]c1=O | -15%
O=Cc1ccc2oc3nc4n(c(=O)c3c(=O)c2c1)CCCS4 | 7%
Cc1noc(C)c1NC(=O)Nc1ccc2c(c1)C(=O)N([C@H](C)CO)C[C@H](C)[C@@H](CN(C)C(=O)Nc1ccccc1)O2 | -18%
CC(=O)N1c2ccc(S(=O)(=O)N3CCCC3)cc2CC1C(=O)NCc1cccc(F)c1 (stereo not given) | -31%
COc1cc(S(=O)(=O)N(Cc2cccnc2)Cc2ccco2)ccc1-n1cnnn1 | -6%
COc1ccc(-c2ccc(NS(=O)(=O)c3cc([N+](=O)[O-])c(C)c([N+](=O)[O-])c3)cc2)nn1 | -25%
O=C(Nc1ccccc1C(=O)O)c1ccc2ccccc2n1 | -15%
CCCCN(C)CCNC(=O)c1cn(C)c(=O)c2c1c1ccccc1n2C | 5%
Cc1ccc(C)c(S(=O)(=O)/N=C2\C=C(NS(=O)(=O)c3ccccc3)C(=O)c3ccccc32)c1 | -15%
CCOC(=O)c1ccc(N2CCN(c3cc(Cl)ccc3C)CC2)c(NC(=O)Nc2cccc(OC)c2)c1 | 14%
CCOC(=O)C1CCCN(c2nc3c(S(=O)(=O)c4ccc(CC)cc4)nnn3c3ccc(Cl)cc23)C1 (stereo not given) | -10%
CCN1CCN(Cc2c(C(=O)N/N=C(\C)c3ccc(Cl)cc3)nnn2-c2nonc2N)CC1 | 9%
C=CCn1c(SCC(=O)NCC2CCCO2)nc2sc(CC)cc2c1=O (stereo not given) | 1%
COc1ccc(/C=N/Nc2nccnc2Cl)c(OC)c1 | -1%
C=C(C)CSc1nnc2[nH]c(=O)cc(N)n12 | 0%
COc1cccc(C(=O)NCc2ccc3[nH]c(C)cc3c2)c1 | -28%
CN(C)S(=O)(=O)c1cccc(CSCc2cccc(S(=O)(=O)N(C)C)c2)c1 | -9%
CCOc1ccccc1CNC(=O)c1cnc2sc(N3CCOCC3)nn2c1=O | -10%
Cc1ccc2c(Cl)cc(Cl)c(OCC(=O)NCCc3ccccn3)c2n1 | 0%
CCCNC(=O)NC(=O)CSc1nnc(C)n1N | -18%
CCCCC(=O)NC(NC(=S)N1CCCCCC1)C(Cl)(Cl)Cl (stereo not given) | -20%
COc1ccc(-n2nc3ccc(NC(=O)COc4ccc(C)c(C)c4)cc3n2)cc1 | -5%
COc1ccccc1C(=O)Nc1c(C)cc(Br)cc1C | 4%
CCCN(CCC)C(=O)C(c1ccccc1)C1(O)CCCCC1 (stereo not given) | 0%
CN(C(=O)COC(=O)c1ccc(CN2CCCC2=O)cc1)c1ccccc1 | 9%
O=C(CSc1nccc(=O)[nH]1)NCc1ccco1 | -18%
O=Cc1c(-c2ccccc2)nc2ccccn12 | -4%
CC1(C)Cc2c(sc3[nH]c(=S)n(Cc4ccco4)c(=O)c23)CO1 | -7%
COc1cc(Nc2nc(SCC(=O)c3ccc(Cl)c(Cl)c3)nc3ccccc23)cc(OC)c1 | 6%
O=c1nccc(N/N=C/c2ccccc2)[nH]1 | 20%
CCC(C)NC(=O)c1ccc(Cl)c(S(=O)(=O)Nc2ccccc2N2CCOCC2)c1 (stereo not given) | 8%
CN1C(=O)C(O)(CC(=O)c2ccccn2)c2cc(Br)ccc21 (stereo not given) | -2%
CCc1c(C)c(C#N)c2[nH]c3ccccc3n2c1=S | ?
COc1cc(-c2nc(Cn3nnc(C(=O)Nc4ccccc4)c3C)c(C)o2)cc(OC)c1OC | -18%
O=[N+]([O-])c1c(NCCO)cc(N2CCCCC2)c2nonc12 | 3%
Cc1cccc(N(C)C(=S)Oc2ccc3ccccc3c2)c1 | -6%&7%
CCNc1ncc2nc(-c3ccc(OC)cc3)c(=O)n(CCOC)c2n1 | -3%

Three entries out of the list, sorted by formula weight, falling:
SMILES | VDR inh
COc1cc(-c2nc(Cn3nnc(C(=O)Nc4ccccc4)c3C)c(C)o2)cc(OC)c1OC | -18%
CCC(C)NC(=O)c1ccc(Cl)c(S(=O)(=O)Nc2ccccc2N2CCOCC2)c1 (stereo not given) | 8%
O=c1nccc(N/N=C/c2ccccc2)[nH]1 | 20%

Reprinted at random: four compounds from above
SMILES | VDR inh
O=Cc1c(-c2ccccc2)nc2ccccn12 | -4%
Cc1cccc(N(C)C(=S)Oc2ccc3ccccc3c2)c1 | -6%&7%
CCc1c(C)c(C#N)c2[nH]c3ccccc3n2c1=S | ?
O=[N+]([O-])c1c(NCCO)cc(N2CCCCC2)c2nonc12 | 3%

Assay outcomes: PubChem, National Center for Advancing Translational Sciences (NCATS)
